KCNQ2 block = KCNQ2 potassium channel inhibitors, primary screen, cell-based, CHO-K1, FluxOR thallium flux, B-score (AID 2156); O88943; 20 min; active compounds read low; only compounds with negative scores are shown here; some inactives read as strong as hits; B-score at 10 µM; actives 1.1% (n = 310,000);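 active means fluorescence ratio B-score at most minus 3 library SDs, with starting brightness B-score within 2 library SDs, cut at about -5.5 in these data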
Target sequence (O88943 whole entry, looked up): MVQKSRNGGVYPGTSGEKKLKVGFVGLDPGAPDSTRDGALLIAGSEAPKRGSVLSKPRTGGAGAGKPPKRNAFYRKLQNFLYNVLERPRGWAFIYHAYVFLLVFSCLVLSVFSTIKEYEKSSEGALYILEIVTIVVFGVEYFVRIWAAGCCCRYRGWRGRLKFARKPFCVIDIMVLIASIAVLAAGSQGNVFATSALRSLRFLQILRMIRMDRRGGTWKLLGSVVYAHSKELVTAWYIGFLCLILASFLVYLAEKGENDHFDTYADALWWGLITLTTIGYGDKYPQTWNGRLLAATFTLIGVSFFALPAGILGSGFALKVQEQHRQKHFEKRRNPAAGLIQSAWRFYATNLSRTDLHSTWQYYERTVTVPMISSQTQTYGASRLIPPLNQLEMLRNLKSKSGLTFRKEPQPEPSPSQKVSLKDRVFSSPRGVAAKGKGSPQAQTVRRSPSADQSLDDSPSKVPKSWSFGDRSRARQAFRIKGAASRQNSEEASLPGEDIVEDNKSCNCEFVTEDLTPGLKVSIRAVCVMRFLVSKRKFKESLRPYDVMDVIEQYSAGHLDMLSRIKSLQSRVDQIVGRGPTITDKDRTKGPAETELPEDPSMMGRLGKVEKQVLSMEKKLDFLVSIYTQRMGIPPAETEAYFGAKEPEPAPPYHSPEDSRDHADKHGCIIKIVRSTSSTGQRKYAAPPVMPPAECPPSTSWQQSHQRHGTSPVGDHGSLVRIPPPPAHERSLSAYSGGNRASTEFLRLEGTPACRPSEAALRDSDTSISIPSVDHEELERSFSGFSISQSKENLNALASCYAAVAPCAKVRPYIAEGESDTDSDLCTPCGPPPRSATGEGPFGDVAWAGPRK
KCNQ2 block baseline = second read-out of KCNQ2 block, no call of its own (marks repeat the call); B-score; measured here: initial fluorescence intensity artifact check;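 brightness before thallium and not channel activity; 0 = typical well and far values either way flag optical interference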
Numbers without * were called inactive; i = inactive.

SMILES | KCNQ2 block | KCNQ2 block baseline
CCOCC(O)CSCc1ccc(Cl)cc1 (stereo not given) | i | 0.31
COc1ccc(NC(=O)C(C/C=C(/C)Cl)C(C)=O)cc1 (stereo not given) | i | -0.23
O=C(c1cnc(Cl)c(Cl)c1)N1CCC(Cc2ccccc2)CC1 | i | 1.56
Cc1ccc(N(CC(=O)NC2CCCC2)C(=O)CCC(=O)Nc2nccs2)cc1C | i | -1.33
CN(C)c1ccc(C(=S)N2CCN(c3ccc([N+](=O)[O-])cc3)CC2)cc1 | i | -1.43
O=C1CC(=O)N(Cc2ccco2)C(=S)N1 | i | -1.2
O=C(CCCc1nc2ccccc2s1)N1CCN(c2ccccc2)CC1 | i | 0.76
Cc1cccc(N(C(=O)c2snc(C(N)=O)c2N)C(C(=O)NC2CCCC2)c2ccco2)c1 (stereo not given) | i | 1.13
COc1cccc(/C=N/NC(=O)c2ccoc2C)c1O | i | 0.01
CCOc1ccccc1NC(=O)n1ncc2c(C)cccc21 | i | 0.01
O=C(NN=C1CCCCCC1)c1ccc(Cl)s1 | i | 2
COc1cc(NC(=O)Nn2cnnc2)cc(OC)c1OC | i | 2.12
Cc1ccc(-n2nc3c(=O)n(CC(=O)NC(C)CCc4ccccc4)nc(C)c3c2C)cc1 (stereo not given) | i | -0.09
COc1ccc(N2C(=O)CSC23C(=O)N2c4c(cccc43)C(C)=CC2(C)C)cc1 (stereo not given) | -6.18* | 1.21*
Cc1n(C)c2cc(Cl)ccc2[n+]1Cc1ccccc1 | i | 0.04
CCN1CCCC1CNC(=O)c1cc2c(-c3ccc(Cl)cc3)nn(C)c2s1 (stereo not given) | i | -0.05
CCN(CCCCCN(C)C)Cc1cc2ccccc2o1 | i | -0.49
Fc1cccc(Cl)c1Cn1nnc(-c2ccc3c(c2)OCO3)n1 | i | 0.13
Cc1ccc(NC(=O)CCc2c(C)nn(-c3ccc(N4CCOCC4)nn3)c2C)cc1F | i | -0.83
COc1cccc(C2CCCN2Cc2nc(-c3cnccn3)no2)c1 (stereo not given) | i | -0.25
COc1ccc(C2/C(=C(/O)c3ccccc3)C(=O)C(=O)N2CCN2CCOCC2)c(OC)c1 (stereo not given) | i | -0.24
CC(O)CC(C(=O)NNc1ccccc1)C(=O)NNc1ccccc1 (stereo not given) | i | -0.68
CC(NC(=O)c1cccnc1)C(=O)O (stereo not given) | i | -0.88
COc1cc(Cl)c(C)cc1NC(=O)CSc1nc2ccccc2o1 | i | -0.81
CCn1c(CN2CCN(C(=O)c3ccco3)CC2)nc2c1c(=O)n(C)c(=O)n2C | i | 0.43
O=C(NCC(=O)N1CCCCC1)c1ccc(Cl)cc1Cl | i | -0.8
O=C(CSc1n[nH]c(-c2ccncc2)n1)c1ccccc1 | i | 1.83
O=[N+]([O-])c1ccc(Nc2ccc(N3CCOCC3)cc2)c([N+](=O)[O-])c1 | i | 0.14
C=CCC(C#Cc1ccccc1)N(C)C (stereo not given) | i | -1.09
c1ccc(Cc2nc3ccccc3n2Cc2ccccc2)cc1 | -8.06* | -0.56*
O=C(Nc1ccccc1)O/N=C1\CCCCC1c1ccc([N+](=O)[O-])cc1[N+](=O)[O-] (stereo not given) | i | -1.54
CCc1ccc2c(c1)/C(=C/C(=O)c1cccs1)C(=O)N2 | i | -0.08
Cc1ccsc1C(=O)OCC(=O)c1cc2ccccc2o1 | i | -0.02
O=C(NC1CCN(C(=O)NCc2ccccc2)CC1)c1ccccc1 | i | -0.43
COc1ccc(NC(=O)CN(c2ccc(OC)cc2)S(=O)(=O)c2c(C)nn(C)c2C)cc1 | i | -0.13
c1cncc(-c2nnc3n2N=C(c2cccs2)CS3)c1 | i | 0.33

Two entries from above, set out differently:
Results follow in this order: KCNQ2 block	KCNQ2 block baseline
CCn1c(CN2CCN(C(=O)c3ccco3)CC2)nc2c1c(=O)n(C)c(=O)n2C
  i	0.43
O=C(CSc1n[nH]c(-c2ccncc2)n1)c1ccccc1
  i	1.83

Next entries
SMILES | KCNQ2 block | KCNQ2 block baseline
CCn1cc(CNC(=O)/C=C/c2ccc([N+](=O)[O-])cc2)c(C)n1 | i | 0.97
CN1C(=O)CC(n2c(CO)nc3ccccc32)C1=O (stereo not given) | i | -0.81
COc1cccc(S(=O)(=O)NCc2ccc(C(=O)N3CCN(c4ccccc4OC)CC3)cc2)c1 | i | 1.79
CC1=NN(c2ccc(Cl)c(C(=O)O)c2)C(=O)C1 | i | -0.69
NC(=O)c1ccc(NC(=S)NCc2ccco2)cc1 | i | -0.46
CCOC(=O)C1C(=O)C=C(c2ccc(Br)cc2)CC1c1ccco1 (stereo not given) | i | -1.34
COc1ccc(/C=C/C(=O)c2ccccc2)cc1COc1ccc(F)cc1 | -6.64* | -1.06*
COc1ccccc1CNC(=O)Cc1c[nH]c2ccccc12 | i | -0.14
CC(=O)Oc1ccc(C(=O)Nc2cc(C)on2)cc1 | i | 2.27
COc1ccccc1CNC(=S)NCCc1ccccc1 | i | -0.29
CCOC(=O)C1CCN(c2c(Nc3ccc(C)c(C)c3)c(=O)c2=O)CC1 | i | 2.03
O=C(Cn1cnc2ccccc2c1=O)Nc1ccc(S(=O)(=O)N2CCOCC2)cc1 | i | 0.42
Cc1ccc(S(=O)(=O)Nc2ccc(S(=O)(=O)Nc3cc(C)nc(C)n3)cc2)cc1 | i | 0.28
COc1ccc(OC(C)C(=O)NCc2cccnc2)cc1 (stereo not given) | i | -1.55
Cc1ccc(C(=O)N2CCN(c3ccc(NC(=O)c4ccc(Br)o4)cc3)CC2)cc1 | i | -0.56
COc1ccc(Cl)cc1NC(=O)NC(C)C(C)(C)C (stereo not given) | i | 0.37
COc1ccc(OC)c(/C(O)=C/C(=O)C(=O)Nc2cc(C)ccc2OC)c1 | i | 1.36
O=C(COC(=O)CNC(=O)C12CC3CC(CC(C3)C1)C2)Nc1ccccc1 | i | -0.3
N/C(=N\OC(=O)CC(c1ccccc1)c1ccccc1)c1cccnc1 | i | -0.27
O=C1C(Cl)=C(NCC2CCCO2)C(=O)N1CCc1ccccc1 (stereo not given) | i | -0.04
O=C(CCCSc1ccccc1)Nc1cccc(CO)c1 | i | -0.28
Cc1cc(C)cc(OCC(=O)N2N=C(C(F)(F)F)CC2(O)C(C)(C)C)c1 (stereo not given) | i | 0.45
CC(=O)c1ccc(NC(=S)Nc2ccc3cn[nH]c3c2)cc1 | i | 1.44
COCCn1c(SCC(=O)Nc2ccccc2F)nnc1-c1ccoc1C | i | -1.25

Reformatted in CSV form: part of the list above.
mol,KCNQ2 block,KCNQ2 block baseline
NC(=O)c1ccc(NC(=S)NCc2ccco2)cc1,i,-0.46
CCOC(=O)C1C(=O)C=C(c2ccc(Br)cc2)CC1c1ccco1 (stereo not given),i,-1.34
COc1ccc(/C=C/C(=O)c2ccccc2)cc1COc1ccc(F)cc1,-6.64*,-1.06*
COc1ccccc1CNC(=O)Cc1c[nH]c2ccccc12,i,-0.14
CC(=O)Oc1ccc(C(=O)Nc2cc(C)on2)cc1,i,2.27
COc1ccccc1CNC(=S)NCCc1ccccc1,i,-0.29
CCOC(=O)C1CCN(c2c(Nc3ccc(C)c(C)c3)c(=O)c2=O)CC1,i,2.03
O=C(Cn1cnc2ccccc2c1=O)Nc1ccc(S(=O)(=O)N2CCOCC2)cc1,i,0.42
Cc1ccc(S(=O)(=O)Nc2ccc(S(=O)(=O)Nc3cc(C)nc(C)n3)cc2)cc1,i,0.28
COc1ccc(OC(C)C(=O)NCc2cccnc2)cc1 (stereo not given),i,-1.55
Cc1ccc(C(=O)N2CCN(c3ccc(NC(=O)c4ccc(Br)o4)cc3)CC2)cc1,i,-0.56
COc1ccc(Cl)cc1NC(=O)NC(C)C(C)(C)C (stereo not given),i,0.37
COc1ccc(OC)c(/C(O)=C/C(=O)C(=O)Nc2cc(C)ccc2OC)c1,i,1.36
O=C(COC(=O)CNC(=O)C12CC3CC(CC(C3)C1)C2)Nc1ccccc1,i,-0.3
N/C(=N\OC(=O)CC(c1ccccc1)c1ccccc1)c1cccnc1,i,-0.27
O=C1C(Cl)=C(NCC2CCCO2)C(=O)N1CCc1ccccc1 (stereo not given),i,-0.04
O=C(CCCSc1ccccc1)Nc1cccc(CO)c1,i,-0.28

(next part)
SMILES | KCNQ2 block | KCNQ2 block baseline
CCOc1ccc(CC(=NCCc2ccccc2)C2=C(O)CC(C)(C)CC2=O)cc1OCC | i | 1.4
Cn1c(=S)c2[nH]c(SCCN3CCCC3)nc2n(C)c1=O | i | -0.85
CCCN(CCC)c1nc(NC2CCN(C(=O)OCC)CC2)nc(OC)n1 | i | -0.71
CC(=O)c1cccc(S(=O)(=O)NCC(c2ccco2)N2CCCCC2)c1 (stereo not given) | i | -0.32
COc1ccccc1NC(=O)CNC(c1ccccc1)c1ccccc1 | -6.07* | 0.64*
CC(C)Oc1ccc(CCN=C(N)N=C(N)N)cc1Cl | i | 0.9
CCN1CCN(c2ccc(S(=O)(=O)N3CCOCC3)cc2NC(=O)/C=C/c2ccc([N+](=O)[O-])cc2)CC1 | i | 2.7
Cc1cccc(C(=O)N2CCC(=O)N(C(COCc3ccc(Cl)cc3)Cc3ccccc3)CC2)c1 (stereo not given) | i | -0.11
CC(=O)c1ccc(N=C2C(=O)Nc3ccccc32)cc1 | i | 1.85
O=C(C1=C(O)C(=O)N(CC2CCCO2)C1c1ccc(Cl)cc1Cl)c1ccco1 (stereo not given) | i | 0.28
O=C(c1cccc(S(=O)(=O)N2CCN(c3ccccc3)CC2)c1)N1CC=C(c2ccccc2)CC1 | i | 0.01
Cc1ccc(S(=O)(=O)N2CCCC(C(=O)NC3CCCC3)C2)cc1 (stereo not given) | i | -1.09
C/C(=N\Nc1nc2ccccc2c(=O)n1O)c1ccco1 | i | -2.69
O=C(C1=C[C@@H](c2csc3ccccc23)C[C@@H](OCCCCO)O1)N1CCN(Cc2ccc3c(c2)OCO3)CC1 | i | -0.6
COc1ccc(C)cc1NC(=O)NCc1ccco1 | i | -0.65
CC(=O)NC(=S)Nc1ccc2oc(-c3cc(F)c(F)cc3Cl)nc2c1 | i | 0.96
CCN(C1CCCCC1)S(=O)(=O)c1ccc(S(=O)(=O)N2CCN(CCC#N)CC2)cc1 | i | -0.81
Cc1ccc(NC(=O)c2nc[nH]c2C(=O)N[C@@H](CCCCNC(=O)OC(C)(C)C)C(=O)OC(C)(C)C)cc1 | i | -2.1
CCC(C)NC(=O)[C@H](CSCc1ccccc1)N1Cc2ccccc2C1=O (stereo not given in full) | i | -1.44
COc1cc(/C=C(\C#N)C(=O)Nc2ccc(SC(F)F)cc2)cc(OC)c1OC | i | -3.48
CCCn1c(N)c(N(CCOC)C(=O)c2ccc(Cl)c([N+](=O)[O-])c2)c(=O)[nH]c1=O | i | -0.87
O=C(NNC(=O)c1ccccc1[N+](=O)[O-])c1cccs1 | i | -1.08
COCCNC(=O)c1cc(C)ccc1C | i | 0.31
CCCSc1nnc(NC(=O)Nc2ccccc2OC)s1 | i | -0.07
O=C(c1csc2c1CCCC2)N1CCN(c2ccc(F)cc2)CC1 | i | 0.44
COC(=O)c1cccc(OCC(O)Cn2ccnc2)c1 (stereo not given) | i | -2.84
Cc1cccc2sc(NC(=O)CSc3nc4ccccc4o3)nc12 | i | 0.89
COc1ccc(CC(=O)Oc2ccccc2C)cc1 | i | 0.4
CCOc1ccc(NC(=O)[C@H](C)NC(=O)C2CC(=O)N(c3ccc(OC)cc3)C2)cc1 (stereo not given in full) | i | -0.13
COc1ccc(C(=O)COC(=O)c2cc(S(=O)(=O)N3CCCCC3)ccc2N2CCOCC2)c(OC)c1 | i | 0.01
COc1cc(CN=Cc2c(O)n(Cc3ccccc3)c(=S)[nH]c2=O)cc(OC)c1 | i | -1.08
Cc1ccc(SC(C)C(=O)N2CCN(c3ccccc3)CC2)cc1 (stereo not given) | i | 2.52
Cc1ccc(CSCC(=O)NCc2ccc3c(c2)OCO3)cc1 | i | -0.61
c1cc(SSc2ccncc2)ccn1 | i | -1.27
Cc1ccc(NC(=O)CN(Cc2ccccc2)S(C)(=O)=O)cc1C | i | -0.62
O=C(/C=C/c1cn(CC(O)CN2CCCCCC2)c2ccccc12)c1cccs1 (stereo not given) | i | 9.23
CC(NC(=O)CN(C1CCCCC1)S(C)(=O)=O)c1ccccc1 (stereo not given) | i | 0.1
Clc1ccc(-c2nnc(COc3ncnc4sccc34)o2)cc1 | i | 0.43
CCCCn1c(SCC(=O)Nc2nc(C)cs2)nnc1-c1cccnc1 | i | -0.57
Cc1cccc(N2CCN(S(=O)(=O)c3ccc(-c4coc(C)n4)cc3)CC2C)c1 (stereo not given) | i | 1.2
CC1CCc2[nH]c3ccc(C(=O)N4CCCC(C(F)(F)F)C4)cc3c2C1 (stereo not given) | i | 1.24
O=C(Nc1nnc(-c2ccccc2)o1)c1ccc(Cl)cc1 | i | 1.82
Cc1oc(C)c(C(=O)Nc2ccc(CC(=O)O)cc2)c1C(=O)Nc1ccc(CC(=O)O)cc1 | i | 1.07
N/C(=N\OC(=O)CCc1ccccc1)c1cccnc1 | i | 1.15
Cc1ccc2cc(CCNC(=O)C(=O)c3c(C)[nH]c4ccccc34)c(=O)[nH]c2c1 | i | 2.34
COc1ccc(C2CC(c3cccs3)=NN2C(=O)CSc2nncs2)cc1OC (stereo not given) | i | 2.8
Cc1ccc(C(=O)C(OC(=O)COc2ccccc2C)c2ccccc2)cc1 (stereo not given) | i | 0.13
COc1ccc(-n2nc(C(=O)NCC(=O)NCCC3=CCCCC3)c3ccccc3c2=O)cc1OC | i | 0.98
CSc1ccccc1OCc1cc(C(=O)NC2CCOC2)no1 (stereo not given) | i | 0.14
COc1ccc(NC(=O)c2ccccc2C)cc1 | i | -1.3
CCOC(=O)C1CCN(C(C(=O)NC2CCCC2)c2ccc(C)cc2)CC1 (stereo not given) | i | 0.08
CCN1CCN(CC(O)COc2ccc(C)c(C)c2)CC1 (stereo not given) | i | -1.59
CN(C)/C=C(/C(=O)c1ccc(Cl)cc1)S(=O)(=O)c1ccc(Cl)cc1 | i | 0.03
Cc1ncc(CO)c(/C=N/NC(=S)Nc2ccc(F)cc2)c1O | i | -0.94
CCOC(=O)N1CCN(S(=O)(=O)N2CCCC(C(=O)NCc3ccccc3OC)C2)CC1 (stereo not given) | i | 1.47
COc1ccc(OC)c(CCNC(=O)Cn2sc3nc(C)cc(C)c3c2=O)c1 | -9.32* | 1.53*

The list is partial; the hit share may differ from the screen's.
